Compound activity: PubChem, ICCB-Longwood Screening Facility, Harvard Medical School
Sa growth inh = S. aureus growth inhibition; relative growth, % (test concentration not listed); actives 0.53% (n = 170,000); S. aureus RN4220 growth, OD600, 20 h, 42 °C; active compounds read low;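 active = growth at 42 °C up to 50% and 20 or more points under that at 30 °C, or under 10% at both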;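 also: 300 nL library stock went into each well; scaled to the means of positive and negative controls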
HCMV NEC inh = cytomegalovirus nuclear egress complex inhibition; HTRF UL50-UL53 interaction, normalized percent inhibition; inhibition, % (concentration not given with the values); actives 0.15% (n = 190,000);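 active = both replicates at 50% or more, plus weaker picks with an unusually low signal ratio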;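 also: stock transfer was 100 nL into about 20 µL; 0% = negative control wells and 100% = wells with untagged competitor protein; inactives centre near -12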
GIV-Gai inh = inhibitors of GIV GBA-motif binding to rat Galpha-i3 | P08753 | Galpha-i3/FITC-GIV peptide fluorescence polarization, 90 min; active compounds read low; scaled: aluminum fluoride 0%, vehicle 100% | percent of control (FP), % (concentration not given with the values) | actives 0.42% (n = 210,000) | AID 1224905;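 active = replicate mean at 85% of control or lower, very high polarization wells dropped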;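 also: wells of about 15 µL received 100 nL stock; the first replicate is given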
Target sequence (P08753 whole entry, looked up): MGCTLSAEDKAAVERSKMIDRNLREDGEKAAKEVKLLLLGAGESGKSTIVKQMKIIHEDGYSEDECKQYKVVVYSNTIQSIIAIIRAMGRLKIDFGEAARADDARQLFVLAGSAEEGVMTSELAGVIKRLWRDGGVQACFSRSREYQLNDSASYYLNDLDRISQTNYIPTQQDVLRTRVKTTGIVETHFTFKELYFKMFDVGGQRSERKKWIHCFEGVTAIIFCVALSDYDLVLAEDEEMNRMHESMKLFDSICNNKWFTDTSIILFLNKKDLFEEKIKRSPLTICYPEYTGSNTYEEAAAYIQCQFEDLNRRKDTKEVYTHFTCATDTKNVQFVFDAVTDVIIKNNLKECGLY
Sa growth inh second temp = second read-out of Sa growth inh, no call of its own (marks repeat the call); relative growth, %; measured here: growth at 30 °C;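 optical density after 20 h as mean of two plates; 100% = untreated growth and lower means inhibition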
Numbers without * were called inactive; nt = no result given; & = joins results of further samples.

Values in the order: GIV-Gai inh, HCMV NEC inh, Sa growth inh second temp, Sa growth inh
1: CCC1CN(C(=O)N2CCC(C(=O)O)CC2)c2cc(C)ccc2O1 (stereo not drawn)
  103, -13, 90, 102
2: COc1ccc(OCc2nn3c(-c4ccc(OC)c(OC)c4)nnc3s2)cc1
  113, -22, nt, nt
3: CCCCOC(=O)CSc1nnc(-c2ccccc2)o1
  99, nt, 87, 92
4: N/N=C(\CCC(=O)O)c1ccccc1
  100, -13, 99, 106
5: Cc1noc(/C=C/c2ccco2)c1S(=O)(=O)N1CCC(C(=O)N2CCCCC2)CC1
  102, nt, 94, 96
6: CC12CCC(=O)N1C(C(=O)OCC(=O)c1ccc(Cl)s1)CS2 (stereo not drawn)
  nt, -28, 96, 74
7: Cc1ccc(C2=Nc3ccccc3N(CC(=O)Nc3ccc4c(c3)OCO4)C(=O)C2)cc1
  97, -29, 85, 91
8: O=C(Nc1ccc2c(c1)OCCO2)N1CCCC1c1ccc(F)cc1 (stereo not drawn)
  99, -6, nt, nt
9: Cc1ccc(NC(=O)NCc2cccn2Cc2ccccc2)cc1F
  105, nt, 91, 94
10: CC(C)(C)C(=O)Nc1ccc(NC(=O)c2ccco2)cc1
  nt, -8, 81, 113
11: COc1ccc(-c2noc(N3CCC(C(=O)Nc4ccc(OC)c(OC)c4)CC3)n2)cc1
  102, 5, 104, 105
12: Cc1ccc(C)c(-c2nnc(NC(=O)c3ccc4c(c3)OCCO4)o2)c1
  99&106, nt, 4, 27
13: Cc1cc(C(=O)COc2ccc(C#N)cc2)c(C)n1CC1CCCO1 (stereo not drawn)
  nt, -15, 93, 90
14: CCOC(=O)c1cn[nH]c1S(=O)(=O)N1c2ccccc2CC1C (stereo not drawn)
  102, -10, nt, nt
15: O=C(c1cc(-c2ccccn2)n[nH]1)N1CCN(C(=O)C2CCC2)CC1
  97, -13, nt, nt

From entry 1 up to 3, copied from above:
Values in the order: GIV-Gai inh, HCMV NEC inh, Sa growth inh second temp, Sa growth inh
1: CCC1CN(C(=O)N2CCC(C(=O)O)CC2)c2cc(C)ccc2O1 (stereo not drawn)
  103, -13, 90, 102
2: COc1ccc(OCc2nn3c(-c4ccc(OC)c(OC)c4)nnc3s2)cc1
  113, -22, nt, nt
3: CCCCOC(=O)CSc1nnc(-c2ccccc2)o1
  99, nt, 87, 92

New compounds follow.
Values in the order: GIV-Gai inh, HCMV NEC inh, Sa growth inh second temp, Sa growth inh
16: CC(=O)N1N=C(c2cccs2)CC1c1ccc(Br)cc1 (stereo not drawn)
  101, -42, nt, nt
17: OC(CNCc1ccc(Cl)cc1Cl)Cn1c(-c2ccc(F)cc2)cc2ccccc21 (stereo not drawn)
  107, 1, 93, 85
18: C=CCn1c(CC(C)C)nnc1SCC(=O)Nc1ccc(Cl)cc1
  102, -24, 85, 105
19: Cc1cc(C)cc(C(=O)Nc2ccc(N3CCN(S(C)(=O)=O)CC3)cc2)c1
  101, -5, 76, 104
20: COc1ccc2c(c1)cc(C(=O)O)n2C
  101, 0, 97, 115
21: CC(C)(C)c1ccc(C(=O)c2ncc[nH]2)cc1
  110, -2, 85, 110
22: CCOC(=O)c1ccc(-c2cc(=O)c3ccccc3o2)cc1
  101, 0, 83, 99
23: O=C(CCC1Nc2c3ccccc3nc(=S)n2C1=O)NC1CC1 (stereo not drawn)
  99, nt, 91, 89
24: Cc1ccc(N2CCN(CC(N)=O)CC2C)cc1 (stereo not drawn)
  102, 11, 105, 98
25: N#CC(NC(=S)Nc1cccc(Cl)c1)c1ccccc1 (stereo not drawn)
  103, -40, 81, 95
26: CN1C(N)=NC(=O)/C1=C/c1ccc(-c2ccc(Br)cc2)o1
  106, -26, 85, 88
27: CCCNC(=O)c1c(NC(=O)c2ccc(C)cc2)sc2c1CCCCC2
  108, -16, 81, 98
28: CCOC(=O)c1c(NC(=O)C(C)Sc2nnc(C)s2)sc2c1CCCC2 (stereo not drawn)
  nt, 3, 93, 100
29: COc1ccc(CNc2nc(-c3ccco3)nn2C(=O)c2ccccc2Cl)cc1
  102, -14, 92, 112
30: Cc1cc(C)cc(NC(=O)NCc2c(-c3ccccc3)noc2C)c1
  104, -32, 86, 98

Continuation:
Values in the order: GIV-Gai inh, HCMV NEC inh, Sa growth inh second temp, Sa growth inh
31: CNc1cc(=O)n(C)c(=O)[nH]1
  104, -14, 81, 88
32: COc1ccc(NS(=O)(=O)c2ccc3oc(=O)ccc3c2)cc1
  110, -7, 99, 103
33: O=C(c1cccs1)n1cnc2ccccc21
  110, -9, 82, 118
34: O=S(=O)(NCCc1csc(-c2cccc(F)c2)n1)c1cc(F)ccc1F
  104, nt, 97, 112
35: Cc1nnc(SC(C)C(=O)N2CCc3ccccc3C2)n(N)c1=O (stereo not drawn)
  nt, -14, 95, 99
36: c1cnc2cc(CNCc3ccc4c(c3)OCO4)ccc2n1
  96, -68, 80, 98
37: Cc1cc2c(c(=O)n1Cc1ccccc1)C(c1ccncc1)C(C#N)=C(N)O2 (stereo not drawn)
  96, -27, 81, 89
38: CCOc1ccc(OCC)c(NC(=O)C2CCN(S(=O)(=O)c3cn(C)cn3)CC2)c1
  103, nt, 96, 122
39: CC1Cc2ccccc2N1C(=O)CSc1nncn1C (stereo not drawn)
  nt, -4, 95, 126
40: CCOC(=O)c1ccc(NC(=O)Cn2ncc3c4ccccc4n(Cc4ccccc4)c3c2=O)cc1
  99, 1, 81, 85
41: Cc1ccc(CN2CCC(CNC(=O)c3nn(C)c4c3CS(=O)(=O)c3ccccc3-4)CC2)cc1
  99, -28, nt, nt
42: S=C(c1ccc(-c2ccccc2)o1)N1CCN(c2ccccc2)CC1
  nt, -22, 88, 104
43: CCOC(=O)c1c(/N=C/c2ccccc2O)sc(C)c1C
  104, nt, 80, 91
44: COc1ccc(NC(=O)CSc2nc3ccccc3n2CC(=O)N(C)C2CCCCC2)cc1
  104, nt, 97, 123
45: CC(C)OC(=O)c1cc2c(ccn2-c2ccc(F)cc2)n1CCC#N
  103, 8, 86, 104

Values in list order from the list:
Entries 32–42 in Sa growth inh second temp: 99, 82, 97, 95, 80, 81, 96, 95, 81, nt, 88
Entries 32–42 in HCMV NEC inh: -7, -9, nt, -14, -68, -27, nt, -4, 1, -28, -22

(further entries)
Values in the order: GIV-Gai inh, HCMV NEC inh, Sa growth inh second temp, Sa growth inh
46: O=C(Cc1ccc(NC(=O)N2CCSc3ncccc32)cc1)NCc1ccccc1
  107, nt, 90, 82
47: O=C1CS/C(=N\S(=O)(=O)c2ccccc2)N1Cc1ccccc1
  nt, -19, 98, 98
48: N#CC1C(=O)NC(=S)C(C(N)=O)C12CCCCC2 (stereo not drawn)
  nt, -47, 82, 82
49: O=C1C(=O)N(C2CCN(S(=O)(=O)c3ccc(F)cc3)CC2)CCN1Cc1ccccc1
  105&102, 8, 97, 117
50: NC(=O)COC(=O)Cc1cccc2ccccc12
  nt, -3, 103, 91
51: CN(C)/C=C(\C#N)c1nc2ccccc2[nH]1
  111, -25, 77, 101
52: O=C(Nc1ccc(N2CCN(Cc3ccccc3Cl)CC2)cc1)c1ccc2c(c1)OCCO2
  103, -4, 96, 111
53: CC(C)(C)c1ccc(-c2noc(CCn3c(=O)oc4ccccc43)n2)cc1
  107, -10, 103, 92
54: COc1cccc(NC(=O)CSc2nnc(SCC(=O)Nc3cccc(OC)c3)s2)c1
  104, -10, nt, nt
55: CC(=O)/C=C(\O)c1ccc(Cl)cc1
  nt, -16, 76, 84
56: CC(C)Cn1cnc2c1c(=O)n(CC(=O)N1CCc3ccccc31)c(=O)n2Cc1ccccc1
  nt, -12, 97, 93
57: CCCc1cc(=O)n2[nH]c(CNc3ccc(Br)cc3)nc2n1
  107, -17, nt, nt
58: Cc1ccc(-n2nc(C(=O)N3CCCC3)c3c4ccccc4n(C)c3c2=O)cc1
  95, nt, 88, 93
59: CCOc1ccc(C(N)CC(=O)OC)cc1 (stereo not drawn)
  102, nt, 97, 100
60: CCN1CCN(c2nccn3nc(-c4ccc(Cl)cc4)cc23)CC1
  106, -1, nt, nt

Other compounds
Values in the order: GIV-Gai inh, HCMV NEC inh, Sa growth inh second temp, Sa growth inh
61: O=C(CSc1ncn[nH]1)NC(c1ccccc1)c1ccccc1
  103, -6, 83, 90
62: CC1CCN(C(=O)Cn2c(SCC(=O)NC(C)(C)C)nc3ccccc32)CC1
  102, -18, 96, 95
63: CC(C)(C)c1ccc(N=Cc2ccccc2O)cc1
  106, -49, 88, 93
64: Cn1cc(C(=O)Nc2ccc(Cl)cc2)c2[nH]c(=O)n(-c3ccc(F)cc3)c(=O)c21
  101, -6, nt, nt
65: CCc1cccc(C)c1NC(=O)Nc1ccc2c(c1)N(C)C(=O)CS2
  107, -19, nt, nt
66: O=C(Cc1c(F)cccc1Cl)OCN1C(=O)c2ccccc2C1=O
  nt, -2, 98, 94
67: CCOC(=O)c1c(S(=O)(=O)N2CCC(C(=O)Nc3cccc(C#N)c3)CC2)c(C)n(C)c1C
  107, nt, 97, 100
68: COc1ccc(-c2noc(CN(C)C(=O)Cc3ccc(OC)c(OC)c3)n2)cc1
  104, 20, 92, 70
69: O=C(NCCCN1CCCC1=O)c1ccccc1NS(=O)(=O)c1ccc(F)cc1
  nt, -6, 95, 99
70: O=C(c1ccc2c(c1)N(Cc1ccc(Cl)cc1)C(=O)c1ccccc1S2(=O)=O)N1CCOCC1
  102, -29, 92, 89
71: Cc1ccc(-c2nc3cccc(C)n3c2Nc2ccc3c(c2)OCCO3)o1
  99, -9, 39, 121
72: CCN1CCN(C(=O)c2c(C)nn(-c3ccc(F)cc3)c2-n2cccc2)CC1
  103, nt, 82, 80
73: COc1ccc(C2CC(=O)N(Cc3ccc(F)cc3)C(=O)C2)cc1OC
  100, -10, nt, nt
74: CN(C(=O)COC(=O)c1cc(=O)c2ccccc2o1)c1ccccc1
  nt, -18, 89, 103
75: CCOC(=O)c1ccc(-c2ccc(/C=C3\C(=O)N(c4cccc(Cl)c4)N=C3C)o2)cc1
  105, -13, nt, nt

The results go on:
Values in the order: GIV-Gai inh, HCMV NEC inh, Sa growth inh second temp, Sa growth inh
76: Cn1c(=O)c2[nH]c(SCC(=O)C(C)(C)C)nc2n(C)c1=O
  nt, -11, 84, 79
77: CCOc1ccc(NC(=O)N2CCC(N3CCCCC3)CC2)cc1
  101, -12, 80, 111
78: CCN(CC)C(=O)c1ccc(COc2ccccc2Cl)cc1
  107, -9, 83, 126
79: O=C(NC(=S)N1CCCC1)c1ccccc1
  107, 8, 99, 112
80: Clc1ccccc1-c1nnc(-c2ccccc2Cl)o1
  106, -14, nt, nt
81: COc1ccc(C2C(C#N)=C(N)OC3=C2C(=O)CC(C)(C)C3)cc1COc1ccc(F)cc1 (stereo not drawn)
  102, 1, nt, nt
82: O=c1c2ccccc2ncn1CCOc1cccc(C(F)(F)F)c1
  104, -24, 90, 111
83: Cc1ccc(S(=O)(=O)NC(C(=O)Oc2ccc3c4c(c(=O)oc3c2)CCCC4)C(C)C)cc1 (stereo not drawn)
  nt, -3, 82, 123
84: CC(=O)N/C(=C\c1ccccc1)C(=O)OCc1nc(N)nc(Nc2ccccc2C)n1
  nt, -28, 89, 81
85: N#CC(=C1Nc2ccccc2N1)c1nc(C#N)c(C#N)nc1Cl
  nt, -7, 72, 85
86: O=C(NCCn1c(-c2ccncc2)nc2cccnc21)c1ccc(Cl)cc1
  101, 0, nt, nt
87: COc1ccc(-c2cc(OC(=O)c3ccc(Cl)cc3)c3c(C)oc(C)c3c(=O)c2)cc1
  107, -59, 97, 95
88: Cc1nc2ccccc2c2oc(C(=O)NCC3COc4ccccc4O3)cc12 (stereo not drawn)
  103, -1, nt, nt
89: C=CCn1c(CCN2CCCCC2)n[nH]c1=S
  nt, -16, 85, 107
90: COC(=O)c1cc(C)nc2c1c(=O)nc(SCc1cc(C)ccc1C)n2C1CC1
  97, nt, 91, 88

Next records follow.
Values in the order: GIV-Gai inh, HCMV NEC inh, Sa growth inh second temp, Sa growth inh
91: Cc1ccc(OCCN)c(Br)c1
  nt, -7, 94, 112
92: O=C1CC(C(=O)N2CCOCC2)C2(CCCCC2)O1 (stereo not drawn)
  104, -9, 112, 87
93: Clc1ccc(C2(c3noc(-c4cccs4)n3)CC2)c(Cl)c1
  102, -19, 78, 90
94: N#Cc1oc2ccccc2c1NC(=O)CSc1nnc2n(-c3ccccc3)c(=O)c3ccccc3n12
  nt, -12, 78, 90
95: CCOC(=O)c1sc2ccccc2c1S(=O)(=O)Nc1cc(OC)ccc1OC
  104, nt, 93, 110
96: CC(=O)NCCNc1nc2c(S(=O)(=O)c3ccc(C)cc3)nnn2c2ccccc12
  103, -7, 94, 96
97: COCCN1C(=O)/C(=C/c2sccc2C)SC1=S
  nt, -4, 110, 86
98: COc1ccc(NC(=O)Cn2nc(-c3ccccc3)c3cc(Cl)ccc32)c(OC)c1
  104, -4, nt, nt
99: CCN(C(=O)c1cn(CC(C)C)c(=O)c2cc(OC)c(OC)cc12)c1ccccc1C
  95, -27, 76, 81
100: Cc1cc(Oc2c(C(F)(F)F)oc3c(CN4CCC(C)CC4)c(O)ccc3c2=O)cc(C)c1Cl
  101, -17, 87, 111
